Screening data deposited in PubChem BioAssay by National Center for Advancing Translational Sciences (NCATS).
PINK1 expr mod = A Quantitative High throughput Screen to Identify Chemical Modulators of PINK1 Expression; 0.2% of 410,000 active; Potency, µM (top dose mostly 76.6 µM), inactives show at the highest dose activation (PINK1 increase), hits mostly activators; PINK1 immunofluorescence, high-content cytometry, 24 h; AID 624263, 2012; active = well fitted activation curve with a large enough effect; inconclusive = small, poorly fitted or top-dose-only effect; inactive = flat fitted curve, though single readings scatter; cell line not stated here;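 also: potency is read from the fitted curve at half-maximal effect; % of control where 0% means no effect; nearly all actives have a fitted effect of over 65% in size; a mitochondrial uncoupler was the plate control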
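Readout is PINK1 immunofluorescence, quantified alongside mitochondrial, cell and nuclear markers by laser-scanning microplate cytometry. Cells from a stable line were exposed to compound titrations (5 concentrations) for 24 hours, with CCCP controls.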
Six1-Eya2 blk = qHTS Assay for Inhibitors of the Six1/Eya2 Interaction; Homeobox protein SIX1 (Homo sapiens) + Protein phosphatase EYA2 (Homo sapiens), …; AlphaScreen GST-Six1/His-Eya2 binding, biochemical; stronger effect = lower value; control for the full effect not named in the record; activity change, % (test concentration not listed); 0.56% of 360,000 active; AID 651725, 2012; in the data active = activity change below about -65%; inconclusive = about -30% to -65%; inactive = above about -30%; also: % is scaled to controls: 0 for no effect and ±100 for the full control effect; compound concentration not given in the record
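AlphaScreen luminescence read after one hour at 37 °C in darkness. Pin-transferred compounds met GST-Six1 and His-Eya2 protein (5X stock 250 nM/500 nM) plus glutathione donor and Ni-chelate acceptor beads (5X, 50 ug/mL).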
D2 agonist = Beta-Arrestin HTS for Positive Allosteric Modulators of the Human D2 Dopamine Receptor: Agonists; 0.084% of 360,000 active; activation, % (concentration not given with the values); AID 624465, 2012; DiscoveRx PathHunter D2 beta-arrestin, luminescence, 90 min; 100% = 57 uM dopamine signal; in the data active = activation above about 40%; inconclusive = about 15% to 40%; inactive = below about 15%; also: compound concentration not given in the record; the text of the record calls up to 30% inactive
Target sequence (P14416 whole entry, looked up): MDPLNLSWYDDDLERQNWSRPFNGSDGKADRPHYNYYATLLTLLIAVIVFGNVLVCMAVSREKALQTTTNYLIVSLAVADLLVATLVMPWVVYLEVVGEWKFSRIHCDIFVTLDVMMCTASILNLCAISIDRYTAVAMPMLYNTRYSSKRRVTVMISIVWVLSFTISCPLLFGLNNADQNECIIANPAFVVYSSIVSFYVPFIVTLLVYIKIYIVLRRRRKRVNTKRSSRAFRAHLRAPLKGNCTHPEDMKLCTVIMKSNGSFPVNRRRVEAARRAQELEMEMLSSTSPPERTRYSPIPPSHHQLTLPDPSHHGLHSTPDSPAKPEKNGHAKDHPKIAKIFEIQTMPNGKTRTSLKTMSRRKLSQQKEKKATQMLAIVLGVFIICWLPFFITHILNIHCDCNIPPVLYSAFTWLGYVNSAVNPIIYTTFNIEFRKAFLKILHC
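Agonist mode: compounds alone added to overnight-plated D2 PathHunter cells for 90 min at 37 C, with 57 uM final dopamine (EC100) defining full response. Beta-arrestin recruitment detected by chemiluminescent reagent, read after 1 h at ambient temperature.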
TRPML1 blocker = qHTS for Inhibitors of the Human Mucolipin Transient Receptor Potential 1 (TRPML1) | Mucolipin-1 (Homo sapiens), Q9GZU1 | activity change, negative = inhibition, % (concentration not given with the values) | 0.02% of 390,000 active | TRPML1-inducible cells, Ca2+ dye fluorescence, FDSS; stronger effect = lower value; inhibition of EC80 agonist-evoked calcium signal; in the data active means activity change below about -50%; inconclusive means about -30% to -50%; inactive means above about -30%;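 also: stimulus is agonist 54-4 at its EC80 concentration; % is scaled to controls: 0 for no effect and ±100 for the full control effect; compound concentration not given in the record; the text of the record puts the active cut at -80%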
Target sequence (Q9GZU1 whole entry, looked up): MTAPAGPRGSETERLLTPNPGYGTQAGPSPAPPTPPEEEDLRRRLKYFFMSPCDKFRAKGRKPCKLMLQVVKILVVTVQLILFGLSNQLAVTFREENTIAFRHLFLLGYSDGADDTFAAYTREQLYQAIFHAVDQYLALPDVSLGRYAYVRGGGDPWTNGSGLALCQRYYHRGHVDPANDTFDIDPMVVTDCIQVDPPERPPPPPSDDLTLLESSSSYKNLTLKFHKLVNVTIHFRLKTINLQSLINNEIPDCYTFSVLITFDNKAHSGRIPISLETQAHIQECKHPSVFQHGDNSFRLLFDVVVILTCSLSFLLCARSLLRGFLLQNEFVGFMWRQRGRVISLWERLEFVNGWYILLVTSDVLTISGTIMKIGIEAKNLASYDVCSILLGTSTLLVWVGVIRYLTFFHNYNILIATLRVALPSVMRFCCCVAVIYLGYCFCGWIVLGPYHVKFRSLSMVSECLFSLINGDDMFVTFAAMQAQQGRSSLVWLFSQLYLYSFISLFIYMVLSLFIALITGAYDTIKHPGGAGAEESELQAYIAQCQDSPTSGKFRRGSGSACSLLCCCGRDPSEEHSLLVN
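Tet-induced TRPML1-DL cells loaded with Ca8 no-wash calcium dye were read kinetically on FDSS. Compound addition was followed by EC80 agonist 54-4 (4 uM final); inhibition was read over 110 s.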
CtBP-E1A inh = qHTS Assay for Inhibitors of the CtBP/E1A Interaction; CtBP / adenovirus E1A interaction (AlphaScreen); AID 651724, 2012; activity change, % (no concentration beside the values); 0.49% of 340,000 active; AlphaScreen GST-E1A/His-CtBP binding, 1536-well; stronger effect = lower value; control for the full effect not named in the record; in the data active means activity change below about -65%; inconclusive means about -30% to -65%; inactive means above about -30%; also: % is scaled to controls: 0 for no effect and ±100 for the full control effect; compound concentration not given in the record
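AlphaScreen with 125 nM GST-E1A and 125 nM His-CtBP (5X stocks) in Tris pH 8.0, 300 mM NaCl, BSA, Tween 20, TCEP. Compounds preincubated 2 h at 37 deg C, then glutathione donor/nickel acceptor beads added for 1 h at 37 deg C in dark.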
TRPML1 ag = qHTS for Agonists of the Human Mucolipin Transient Receptor Potential 1 (TRPML1). 0.12% of 410,000 active. AID 624414, 2012. Mucolipin-1 (Homo sapiens), Q9GZU1. TRPML1-expressing cells, Ca2+ dye fluorescence, FDSS; host cell line not named in the record; reference of the full effect not given here. activation, % (no concentration beside the values); in the data active = activation above about 50%; inconclusive = about 30% to 50%; inactive = below about 30%; also: 0% is about no effect; the text of the record puts the active cut at 80%
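Tet-induced TRPML1-DL cells, 1,500 per well, cultured overnight, were loaded with a no-wash Ca2+ dye for 45–90 min. Calcium fluorescence was recorded on the FDSS for 110 s after compound addition, before the EC80 agonist (4 uM 54-4) was added.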
Numbers without * were called inactive.

For NC(=O)c1ccsc1NC(=O)C1CCCCC1 the results were PINK1 expr mod 1.8%, Six1-Eya2 blk -5.1, D2 agonist -5.0, TRPML1 blocker -4.8, CtBP-E1A inh -0.1 and TRPML1 ag -1.6.
Cc1ccc(/C(N)=N/OC(=O)Cc2ccccc2)cc1 was read as PINK1 expr mod 3.7%, Six1-Eya2 blk 53.8, D2 agonist -0.9, TRPML1 blocker -15.7, CtBP-E1A inh 64.8 and TRPML1 ag 2.0.
Screening Cc1ccccc1CS(=O)(=O)Cc1ccc(C(=O)NCc2ccc(F)cc2)o1 returned PINK1 expr mod -5.1%, TRPML1 blocker -4.4 and TRPML1 ag 1.5.
CC(=O)NC(CC(=O)OC(C)C(=O)Nc1ncc(Cl)cc1Cl)c1ccccc1 (stereo not given) was read as PINK1 expr mod -0.9%, Six1-Eya2 blk 3.1, D2 agonist -1.3, TRPML1 blocker 2.2, CtBP-E1A inh -5.0 and TRPML1 ag 1.0.
c1ccc(CN(Cc2cccs2)C(c2cccs2)c2nnnn2C2CCCC2)cc1 (stereo not given) was read as PINK1 expr mod 0.0%, Six1-Eya2 blk 3.1, D2 agonist -2.8, TRPML1 blocker 32.1, CtBP-E1A inh 4.5 and TRPML1 ag 1.5.
`Cn1cccc2[nH]c(=O)nc1-2` gave PINK1 expr mod -0.8%, Six1-Eya2 blk 6.1, D2 agonist -2.3, TRPML1 blocker -11.6, CtBP-E1A inh -3.8 and TRPML1 ag 1.0.
`CC(C)Cn1c(=O)c2c(nc3n2CC(C)CN3Cc2ccccc2)n(C)c1=O` (stereo not given) gave PINK1 expr mod 0.8%, Six1-Eya2 blk 5.9, D2 agonist -3.5, TRPML1 blocker 5.9, CtBP-E1A inh 24.5 and TRPML1 ag 0.2.
Screening CCCCCC(=O)Nc1ccc(N2CCN(C(=O)CCC)CC2)cc1 returned PINK1 expr mod -0.4%, Six1-Eya2 blk -0.3, D2 agonist -1.6, TRPML1 blocker -26.8, CtBP-E1A inh 13.2 and TRPML1 ag 0.0.
Cc1cccc(-c2nc(Nc3cccc(O)c3)c3ccccc3n2)c1 was read as PINK1 expr mod 1.4%, Six1-Eya2 blk -10.7, D2 agonist -6.2 and CtBP-E1A inh -1.9.
For COc1cc(S(=O)(=O)NCC2(N3CCCCC3)CCCCC2)ccc1NC(C)=O the results were PINK1 expr mod -5.4%, Six1-Eya2 blk 1.4, D2 agonist -0.4, TRPML1 blocker -5.8, CtBP-E1A inh 3.7 and TRPML1 ag 0.7.
O=C(/C=C/c1ccc(Cl)cc1)N1CCN(CCN2C(=O)c3cccc4cccc(c34)C2=O)CC1 was read as PINK1 expr mod 1.3%, Six1-Eya2 blk 3.4, D2 agonist -2.9 and CtBP-E1A inh -0.5.
CCCCCOc1ccc(NC(=O)CCCC(=O)O)cc1 was read as PINK1 expr mod 2.4%, Six1-Eya2 blk 9.2, D2 agonist 0.5, TRPML1 blocker -5.1, CtBP-E1A inh 5.0 and TRPML1 ag 0.5.
CCCC(=O)N1CC(=O)Nc2ccc(Cl)cc2C1c1ccc(F)cc1 (stereo not given) was read as PINK1 expr mod -1.5%, TRPML1 blocker -7.2 and TRPML1 ag -1.2.
`Fc1ccc(-n2ncc3c(NCCCn4ccnc4)ncnc32)cc1` gave PINK1 expr mod 3.0%, TRPML1 blocker 8.1 and TRPML1 ag -0.3.
O=C(O)c1ccc(NS(=O)(=O)Cc2ccc(Cl)c(Cl)c2)cc1 was read as PINK1 expr mod 1.7%, Six1-Eya2 blk 0.6, D2 agonist 1.2, TRPML1 blocker 2.0, CtBP-E1A inh -2.2 and TRPML1 ag -0.5.
For NC(=O)c1ccccc1NC(=O)Nc1cccc(Cl)c1Cl the results were PINK1 expr mod 0.5%, Six1-Eya2 blk -4.2, D2 agonist -4.0, TRPML1 blocker 17.3, CtBP-E1A inh 12.1 and TRPML1 ag -0.5.
`COc1ccc(N2CCN(S(=O)(=O)CCNC(=O)CCCc3ccccc3)CC2)cc1` gave PINK1 expr mod -0.2%, Six1-Eya2 blk -1.6, D2 agonist 1.1, TRPML1 blocker -1.9, CtBP-E1A inh 9.7 and TRPML1 ag -0.8.
`COc1ccc(NC(=O)c2c(C)noc2-c2snnc2C)cc1` gave PINK1 expr mod 7.6%, Six1-Eya2 blk -5.3, D2 agonist 1.3, TRPML1 blocker 22.1, CtBP-E1A inh -10.1 and TRPML1 ag 1.3.
C[C@H]1C[C@@H]2[C@H]([C@@H](O)C[C@@]3(C)[C@H]2CC[C@]3(O)C(=O)CO)[C@@]2(C)C=CC(=O)C=C12 was read as PINK1 expr mod 1.1%, Six1-Eya2 blk -4.0, D2 agonist 1.9, TRPML1 blocker 6.4, CtBP-E1A inh -0.4 and TRPML1 ag 0.4.
`Cc1ccc(C2/C(=C(\O)c3c(C)nc4c(C)cccn34)C(=O)C(=O)N2CCN(C)C)o1` (stereo not given) gave PINK1 expr mod 0.9%, Six1-Eya2 blk 2.4, D2 agonist 5.5, TRPML1 blocker -9.3 and TRPML1 ag 0.5.

The last 2 entries of the part above are carried over, then new ones follow.
C[C@H]1C[C@@H]2[C@H]([C@@H](O)C[C@@]3(C)[C@H]2CC[C@]3(O)C(=O)CO)[C@@]2(C)C=CC(=O)C=C12 was read as PINK1 expr mod 1.1%, Six1-Eya2 blk -4.0, D2 agonist 1.9, TRPML1 blocker 6.4, CtBP-E1A inh -0.4 and TRPML1 ag 0.4.
`Cc1ccc(C2/C(=C(\O)c3c(C)nc4c(C)cccn34)C(=O)C(=O)N2CCN(C)C)o1` (stereo not given) gave PINK1 expr mod 0.9%, Six1-Eya2 blk 2.4, D2 agonist 5.5, TRPML1 blocker -9.3 and TRPML1 ag 0.5.
`Cc1ccc(F)c(S(=O)(=O)NC(=O)C2(C)CCN2C(=O)c2sccc2C)c1` (stereo not given) gave PINK1 expr mod 0.6%, Six1-Eya2 blk 2.6, D2 agonist 5.3, CtBP-E1A inh 10.6 and TRPML1 ag -0.5.
`CNC(=O)C[C@H]1C(=O)N(c2ccc(Br)cc2)C[C@@H]1C` gave PINK1 expr mod 2.0%, Six1-Eya2 blk 0.6, D2 agonist -1.2 and CtBP-E1A inh -2.4.
For C=CCn1c(N)cc(=O)nc1SC(CC)C(=O)Nc1ccc(C(C)=O)cc1 (stereo not given) the results were PINK1 expr mod 0.9%, Six1-Eya2 blk 0.5, D2 agonist -2.6, TRPML1 blocker -2.7, CtBP-E1A inh -7.9 and TRPML1 ag 0.0.
`CCCCCCn1c(/C=C/c2ccccc2)nc2ccccc21` gave PINK1 expr mod 6.9%, TRPML1 blocker 52.0 and TRPML1 ag 4.8.
For COc1ccc(-n2c(=O)c3c4c(sc3n(CC(=O)NCC3CCCO3)c2=O)CN(C(C)=O)CC4)cc1OC (stereo not given) the results were PINK1 expr mod -1.0%, Six1-Eya2 blk 0.8, D2 agonist -3.3, TRPML1 blocker -8.1, CtBP-E1A inh 1.6 and TRPML1 ag -0.4.
Screening COc1ccc(NC(=O)c2nc(-c3ccc(C)cc3)n3c2CCCCC3)cc1 returned PINK1 expr mod 0.4%, TRPML1 blocker 15.2 and TRPML1 ag 1.0.
Screening Cc1cccc(NC(=O)c2cc(S(=O)(=O)N3CCc4ccccc43)cn2C)c1 returned PINK1 expr mod 10.9%, Six1-Eya2 blk -2.4, D2 agonist -1.7, TRPML1 blocker 60.2, CtBP-E1A inh 3.5 and TRPML1 ag 1.9.
For COc1ccc(N2CCN(C(=O)Cn3cncn3)CC2)cc1 the results were PINK1 expr mod 0.5%, Six1-Eya2 blk -1.3, D2 agonist 1.8, TRPML1 blocker 56.1, CtBP-E1A inh -0.5 and TRPML1 ag -0.6.
Screening CN1CCN(C(=O)c2cc3ccccc3cc2O)CC1 returned PINK1 expr mod 1.2%, Six1-Eya2 blk 2.8, D2 agonist -5.1, TRPML1 blocker -11.8, CtBP-E1A inh -0.7 and TRPML1 ag 0.4.
For COc1ccccc1CNC(=O)CCCn1c(=O)c2cccn2c2ccccc21 the results were PINK1 expr mod 0.4%, TRPML1 blocker -2.1 and TRPML1 ag 0.4.
For COc1ccc(C(=O)Nc2ccc(C(=O)Nc3nccs3)cc2)cc1[N+](=O)[O-] the results were PINK1 expr mod 1.3%, Six1-Eya2 blk -3.2, D2 agonist 0.7, TRPML1 blocker 3.2, CtBP-E1A inh -1.2 and TRPML1 ag 0.6.
CC(C)(C)C1CCC(OC(=O)C[N+]2(C)CCCCC2)CC1 (stereo not given) was read as PINK1 expr mod 0.3%, Six1-Eya2 blk 9.1, D2 agonist 1.3, TRPML1 blocker 33.9, CtBP-E1A inh 6.2 and TRPML1 ag 0.0.
For C=C(C)Cn1c(SCC(=O)O)nc2c1c(=O)[nH]c(=O)n2C the results were PINK1 expr mod 0.2%, Six1-Eya2 blk 1.0, D2 agonist 0.3, TRPML1 blocker -6.7, CtBP-E1A inh 0.3 and TRPML1 ag 0.1.
COc1ccc(CN2C(=O)c3ccccc3C2=O)cc1C(=O)OCC(=O)NC1CCCCC1 was read as PINK1 expr mod 1.9%, Six1-Eya2 blk -2.8, D2 agonist 1.4, TRPML1 blocker 3.3, CtBP-E1A inh 5.3 and TRPML1 ag 0.3.
For O=C(O)c1ccc(Nc2cc(Cl)c3nonc3c2[N+](=O)[O-])cc1 the results were PINK1 expr mod -0.3%, Six1-Eya2 blk inconclusive, D2 agonist -0.7, TRPML1 blocker -11.6, CtBP-E1A inh -7.5 and TRPML1 ag 0.1.
For CC(C)c1ccc(Cc2cnc(NC(=O)c3ccc4c(c3)CC(c3ccccc3)OC4=O)s2)cc1 (stereo not given) the results were PINK1 expr mod -0.2%, TRPML1 blocker -14.5 and TRPML1 ag 1.1.
`NC(=O)c1cc(N)ccc1N1CCCCC1` gave PINK1 expr mod -1.3%, Six1-Eya2 blk 8.1, D2 agonist 1.0, TRPML1 blocker 3.4 and TRPML1 ag -0.5.
`O=C(c1ccccc1[N+](=O)[O-])N1N=C(c2ccccc2)CC1(O)C(F)(F)F` (stereo not given) gave PINK1 expr mod -0.4%, Six1-Eya2 blk 1.3, D2 agonist -4.5, TRPML1 blocker 30.6 and TRPML1 ag 0.2.
Screening O=C(NC1CCCC1)c1ccc(CS(=O)(=O)c2cccc(C(F)(F)F)c2)o1 returned PINK1 expr mod 0.1%, Six1-Eya2 blk 30.7, D2 agonist -3.7, TRPML1 blocker 2.0, CtBP-E1A inh 39.3 and TRPML1 ag 0.5.
`CN(CC(=O)Nc1ccccc1Cl)CC(=O)Nc1ccccc1[N+](=O)[O-]` gave PINK1 expr mod -1.9%, Six1-Eya2 blk -21.8, D2 agonist -1.3, TRPML1 blocker 24.4, CtBP-E1A inh 10.0 and TRPML1 ag 2.3.
